Sa ugtP lethal: compounds lethal to S. aureus RN4220 ugtP deletion mutant; OD600 growth, 16 h; some inactives read as strong as hits; growth inhibition, % (no concentration beside the values); actives 0.54% (n = 330,000); AID 1259309;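 active = z-score under -3 and OD600 up to 0.15 on both plates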;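 note: plate controls were untreated wells for no effect and antibiotic for full effect; wells of about 80 µL received 100 nL stock; the first replicate is given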
PrP UTR inh: inhibition of PrP 5' UTR reporter expression; actives 0.35% (n = 340,000); inhibition, % (concentration not given with the values); AID 488862; cell-based PrP 5' UTR mRNA reporter, plate reader;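 active = every replicate at 50% or more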;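 note: 0 = median of the neutral control wells; tested in H4 reporter cells; numbers are from one replicate; inactives centre near -14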
BJeLR viability: kills HRASV12-expressing BJeLR cells; BJeLR (HRASV12) viability, CellTiter-Glo ATP luminescence, 48 h; reference of the scale not given here; inhibition, % (no concentration beside the values); actives 0.17% (n = 300,000); AID 1554;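 active = replicate mean above 50%; inconclusive = above 50% but judged a plate artefact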;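 note: 50 nL library stock added to about 25 µL; numbers are from one replicate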
Mtb hypoxia rep: Mtb hypoxia fluorescent reporter inhibition | M. tuberculosis hypoxia-regulated fluorescent reporter, fluorescence | fluorescence inhibition, % (test concentration not listed) | actives 0.1% (n = 300,000);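 active = 35 to 45% if threefold the growth effect, above 45% if 1.5-fold the growth effect; inactive = the rest, general growth blockers included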;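 note: wells of about 50 µL received 100 nL stock; 0% = vehicle wells and 100% = reference inhibitor wells; whole bacteria with a GFP reporter of the hypoxia response; strong numbers were not always called active; many hits fall short of the cut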
Bead autofluor: counter-screen for toxin protease inhibitors: compound fluorescence; compound autofluorescence counterscreen, microsphere flow cytometry; stronger effect = higher value; fluorescence intensity (test concentration not listed); actives 3.1% (n = 360,000);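 active = at least 3 SD above the mean of all compounds, about 16000 in these data; inconclusive = too few beads counted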;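 note: 100 nL of 1 mM stock went into each well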
RN4220 kill: kills Staphylococcus aureus RN4220; S. aureus RN4220 growth, OD600, 16 h; inhibition, % (test concentration not listed); actives 0.33% (n = 330,000);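 active = z-score of -3 or lower and OD600 up to 0.18 on both plates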;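 note: plate controls were untreated cells for no effect and reference antibiotic for full effect; stock transfer was 100 nL into about 80 µL; one replicate is shown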
Mtb hypoxia rep growth: recorded beside Mtb hypoxia rep, whose call it bears; growth inhibition, %; measured here: M. tuberculosis growth (absorbance);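 0% = vehicle and 100% = reference antibiotic; read after six days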
Active calls of the source: *; ? = inconclusive; / = no result given; & = joins results of further samples.

SMILES | Sa ugtP lethal | PrP UTR inh | BJeLR viability | Mtb hypoxia rep | Mtb hypoxia rep growth | Bead autofluor | RN4220 kill
Cc1ccc(SCC(O)=C(C#N)c2nc3ccccc3n2C)cc1 | 5.4 | / | / | 3.5 | 4.6 | / | 9.2
Cc1ccc(CCNCc2c(C(=O)O)c(C)n(-c3ccccc3)c2C)cc1 | -0.9 | -16.5 | 10.2 | -8.1 | 5.6 | 4234 | -6.4
O=S(=O)(c1ccc(F)cc1)c1nc(-c2ccco2)oc1Nc1ccccc1 | 2.1 | -28.4 | -1.3 | 5.4 | 4.1 | 2635 | -1.1
COc1ccc(NC2CCCN(C(=O)c3ccc(C(C)=O)s3)C2)cc1 (centres undefined) | -6.5 | 0.7 | -4.7 | -3.1 | 4.3 | 4659 | -2.3
CC(=O)N1CCN(Cc2nc3cc(NC(=O)c4cccc(Br)c4)ccc3n2C)CC1 | 5.1 | -27.6 | 6.3 | -1.4 | 6.0 | 5804 | 2.5
Cc1ccc(Sc2oc(/C=N/n3cnnc3)cc2Br)cc1 | / | -15.1 | 8.3 | / | / | 11021 | /
c1ccc(-c2ccc(CN3C[C@@H]4C(c5ccccc5)C5(c6cccnc6)CC4(C5)[C@H]3c3ccccc3)cc2)cc1 (some centres undefined) | / | -8.9 | -12.4 | / | / | 4323 | /
COc1ccccc1C(CNC(=O)c1oc2ccccc2c1C)N1CCCC1 (centres undefined) | -3.0 | -12.8 | / | 0.4 | -1.7 | 6984 | 1.1
CCOC(=O)c1sc(/N=C/c2c(O)n(-c3ccccc3)c(=O)[nH]c2=O)c(C#N)c1C | 3.1 | -2.9 | 1.0 | 11.9 | 2.7 | 3321 | 6.8
COc1ccccc1CNC(=O)[C@@H](NC(=O)C1CCN(C(=O)[C@@H]2CCCN2C(=O)OC(C)(C)C)CC1)C(C)C | -1.3 | -4.4 | 1.5 | / | / | 4894 | 2.3
COc1ccc(Cl)cc1NC(=O)CC(C)=NNC(=O)c1ccc(O)cc1 | 3.8 | / | / | 15.2 | 9.0 | / | 5.6
C/C(NCC(C)(C)CN(C)C)=C(/C#N)C(=O)NCc1ccccc1 | 0.8 | -17.6 | -3.5 | 9.7 | 12.7 | 8090 | 2.0
CCc1ccc(S(=O)(=O)Nc2cccc(-c3ccc4nncn4n3)c2)s1 | -6.0 | -16.2 | -8.6 | 3.2 | 2.0 | 2016 | 4.8
CC1=C(C(=O)Nc2ccccc2C)C2(CCCCC2)C(C(N)=O)C(=S)N1 (centres undefined) | 4.6 | -30.2 | -1.4 | 8.4 | -2.8 | 2641 | 2.9
CCNC(=O)NC(=O)CSc1nnc(-c2c[nH]c3ccccc23)o1 | 5.3 | -10.0 | 2.1 | -8.4 | -4.3 | 3085 | 0.1
O=S(=O)(c1ccccc1Oc1ccc(Cl)cc1Cl)N1CCCCC1 | 9.5 | -26.0 | -9.0 | 7.1 | 10.2 | 3920 | 1.1
COC(=O)C1C[C@@]2(O)C(O)C(O)C(O)CC2N1Cc1ccc(C)s1 (some centres undefined) | 1.1&-5.8 | / | / | 0.8&10.0 | 6.7&7.2 | / | 8.0&4.6
Cc1cc(C)c2c(=O)[nH]c(SCc3ccccc3C)nc2n1 | -0.1 | -20.9 | -1.9 | 11.6 | 0.6 | 4802 | 7.7
O=C(N1CCOCC1)N1CCC(n2nnc3cc(F)ccc32)CC1 | 13.6 | -6.4 | -1.4 | 1.8 | -2.9 | 3138 | -1.5
Cn1c(=O)c2c(nc(OCC3COC(C)(C)O3)n2Cc2ccccc2F)n(C)c1=O (centres undefined) | -0.1 | 2.1 | -1.9 | 16.7 | 3.8 | 3151 | -10.5

Reprinted at random: two compounds from above.
SMILES | Sa ugtP lethal | PrP UTR inh | BJeLR viability | Mtb hypoxia rep | Mtb hypoxia rep growth | Bead autofluor | RN4220 kill
CC1=C(C(=O)Nc2ccccc2C)C2(CCCCC2)C(C(N)=O)C(=S)N1 (centres undefined) | 4.6 | -30.2 | -1.4 | 8.4 | -2.8 | 2641 | 2.9
C/C(NCC(C)(C)CN(C)C)=C(/C#N)C(=O)NCc1ccccc1 | 0.8 | -17.6 | -3.5 | 9.7 | 12.7 | 8090 | 2.0

Next section.
SMILES | Sa ugtP lethal | PrP UTR inh | BJeLR viability | Mtb hypoxia rep | Mtb hypoxia rep growth | Bead autofluor | RN4220 kill
Oc1ccc(/C=C/c2ccnc3ccccc23)cc1 | / | -21.9 | -4.0 | / | / | 10246 | /
O=C(Cc1ccccc1)Nc1ccc(NC(=O)c2cccs2)cc1Cl | -3.2 | 5.5 | 0.7 | -2.3 | -0.5 | 2105 | 4.5
COc1ccccc1C(=O)NCC(=O)N/N=C/c1ccc2c(c1)OCO2 | / | -12.2 | -3.6 | / | / | 3679 | /
COc1cc(C#N)ccc1OC(=O)c1cccc(S(=O)(=O)N2CCN(C)CC2)c1 | 7.4 | -7.0 | -2.7 | 9.5 | -6.0 | ? | 3.4
O=C(O)Cc1ccc(NC(=O)Nc2ccc(Br)cc2)cc1 | -6.4 | -25.2 | -2.8 | 8.0 | 1.6 | 2316 | -0.5
COc1cc2cc[n+](Cc3ccc([N+](=O)[O-])cc3)cc2cc1OC | 5.0 | -18.5 | -5.3 | -1.0 | -14.4 | 2983 | -3.4
O=C(NCC1CCCO1)c1ccc(Oc2ccc([N+](=O)[O-])cc2Cl)cc1 (centres undefined) | 3.8 | 0.8 | -3.0 | 8.9 | 2.5 | 2038 | 4.9
COc1ccc(-c2noc3c2-c2nc(-c4ccc(Cl)cc4)sc2CC3)cc1 | -1.0 | -18.4 | 3.1 | 4.7 | 4.5 | 3523 | 6.1
CCOc1cc(/C=C(\C#N)C(=O)Nc2cccc(C(=O)O)c2)ccc1OCc1ccccc1Cl | / | -20.7 | -4.7 | / | / | 5627 | /
CC1CC(C)CN(CCCNC(=O)CN2C(=O)CSc3ccc(S(=O)(=O)N4CCOCC4)cc32)C1 (centres undefined) | 1.9 | -10.9 | 4.2 | 3.9 | -4.6 | 6089 | 0.8
O=C(OCC(=O)N1CCCC1)c1ccc(OC(F)(F)F)cc1 | 5.1 | -26.5 | -1.5 | -4.8 | -21.7 | 3403 | 0.9
COc1cccc(-c2c(C#N)c(N)nc3c2c(C)nn3-c2ccccc2)c1O | 7.6 | -6.8 | 0.2 | -2.1 | 0.4 | 3497 | -1.5
Cc1ccc(OCC(=O)N(C)C2CCCCC2)c([N+](=O)[O-])n1 | 3.9 | -6.3 | / | 10.7 | 9.4 | 3404 | 4.2
Cc1ccc2nc(-c3ccc(NC(=O)CSc4nc(N)cc(=O)[nH]4)cc3)sc2c1 | 2.3 | -82.3 | 7.1 | 11.3 | -1.2 | 3947 | 3.4
CCN(C(=O)c1ccc(=O)[nH]c1)c1c(N)n(Cc2ccccc2)c(=O)[nH]c1=O | 2.1 | -2.2 | / | -4.9 | -6.0 | 3114 | -2.2
CO/N=C/NC(=O)c1c(OC)ccnc1Oc1ccccc1 | 2.6 | -15.5 | 6.1 | 6.7 | -3.0 | 8104 | -4.2
Cc1nccn1CC(=O)NN=Cc1ccccc1O | -0.3 | / | / | 14.0 | -13.6 | / | 1.9
Cn1nnnc1SCc1ccc(CSc2nnnn2C)cc1 | -1.6 | -15.8 | -13.9 | -8.7 | -0.8 | 2538 | 8.0
CN1CCN(C(=O)N2CCNC2=O)CC1 | 4.0 | -9.5 | -2.4 | 6.0 | 6.4 | 3711 | 6.1
COc1ccccc1/C=C1\SC(=O)N(CCC(=O)N(C)C2CCS(=O)(=O)C2)C1=O (centres undefined) | 1.0 | -38.2 | 12.1 | 14.7 | 5.7 | 5002 | 6.5
CCc1ccc(CC(=S)N2CCOCC2)cc1 | 3.3 | -22.1 | -6.8 | 12.4 | 8.2 | 2781 | 1.2
CCOc1ccccc1N1CCN(C(=S)Nc2ccc(S(N)(=O)=O)cc2)CC1 | -1.3 | -7.0 | 9.2 | -1.3 | 0.9 | 2073 | -1.2
O=C(NC1CCCC1)c1cccc2c1C(=O)c1ccc(Cl)cc1S2(=O)=O | 1.2 | -23.9 | / | 6.2 | 3.1 | 4059 | 12.2
CCCC(=O)NC(c1ccc2c(c1)OCO2)c1cc(Cl)c2cccnc2c1O (centres undefined) | -6.4 | 19.2 | 14.6 | / | / | 2262 | 40.7
CCCCNC(=O)CO/N=C(\C)c1cc2ccccc2o1 | / | -34.9 | 6.9 | / | / | 2169 | /
N/C(CCS(=O)(=O)c1ccc(Cl)cc1)=N\OC(=O)c1ccccc1C(F)(F)F | 12.3 | -16.6 | -4.4 | 2.9 | -5.5 | 5909 | 5.5
Cn1c(=O)[nH]c(=O)c2c1nc(SCCO)n2CC(O)COc1ccccc1 (centres undefined) | 2.9 | -10.2 | 2.0 | 8.2 | 1.1 | 3701 | 2.1
CC1CC(C)CN(C(=O)c2ccc3c(=O)n(Cc4ccc5c(c4)OCO5)c(=S)[nH]c3c2)C1 (centres undefined) | -0.4 | -13.9 | -3.2 | -2.4 | 2.0 | ? | -5.0
Cc1cc(OCC(=O)Nc2ccccc2C)no1 | 1.0 | -22.4 | / | 14.7 | 7.2 | 3571 | 7.3
Cc1cc(Cn2nc(C(=O)NCc3cccc(C(F)(F)F)c3)cc2-c2ccccc2)on1 | 5.3 | 1.4 | / | 4.5 | 2.6 | 2979 | -10.0

Shown with values under each structure: entries from further up
Results follow in this order: Sa ugtP lethal	PrP UTR inh	BJeLR viability	Mtb hypoxia rep	Mtb hypoxia rep growth	Bead autofluor	RN4220 kill
> N/C(CCS(=O)(=O)c1ccc(Cl)cc1)=N\OC(=O)c1ccccc1C(F)(F)F
    12.3	-16.6	-4.4	2.9	-5.5	5909	5.5
> Cn1c(=O)[nH]c(=O)c2c1nc(SCCO)n2CC(O)COc1ccccc1 (centres undefined)
    2.9	-10.2	2.0	8.2	1.1	3701	2.1
> CC1CC(C)CN(C(=O)c2ccc3c(=O)n(Cc4ccc5c(c4)OCO5)c(=S)[nH]c3c2)C1 (centres undefined)
    -0.4	-13.9	-3.2	-2.4	2.0	?	-5.0

(further entries)
SMILES | Sa ugtP lethal | PrP UTR inh | BJeLR viability | Mtb hypoxia rep | Mtb hypoxia rep growth | Bead autofluor | RN4220 kill
O=C(NN=Cc1c[nH]c2ccccc12)c1ccc2c(c1)OCCO2 | 5.7 | / | / | 5.0 | -1.0 | / | 0.1
CN(C)c1ccc(C=NN2CCN(Cc3ccccc3Cl)CC2)cc1 | 10.7 | / | / | -4.6 | -1.5 | / | 1.5
O=C(c1cc2c(s1)CCCCCC2)N1CCC2(CC1)OCCO2 | -3.4 | -17.2 | 10.4 | 6.7 | 9.7 | 9852 | 8.0
N#CC1=C(C=Nc2ccccc2O)CCC1 | -12.9 | -28.8 | 4.4 | -1.6 | 6.9 | 3809 | 4.9
O=C(CSc1ncn[nH]1)Nc1ccc2c(c1)CCC2 | 0.4 | -9.5 | -3.7 | -15.4 | 7.1 | 2035 | 5.4
CCOc1cc(C=NNC(=O)C(N)=O)cc(Br)c1O | 0.4 | / | / | / | / | / | 6.8
O=C(C[n+]1ccn(CCCNP2(=O)C=C(c3ccccc3)OC(c3ccccc3)=C2)c1)c1ccccc1 | -6.1 | 1.5 | 1.7 | 24.5 | 19.2 | 3136 | 0.5
Cc1ccc(CNC(=S)Nc2ccc(NS(=O)(=O)c3ccc(C)cc3)cc2)cc1 | -14.5 | -17.1 | -7.3 | 5.3 | 13.1 | 5453 | -0.9
CCC(Sc1nc(=O)cc(N)n1-c1cccc(C)c1)C(=O)Nc1cc(C)on1 (centres undefined) | 9.1 | -8.7 | 2.4 | 5.1 | -0.5 | 6073 | 5.2
CCOC(=O)c1c(S(=O)(=O)Nc2cccc(Cl)c2)c(C)n(C)c1C | -11.1 | -0.9 | 1.5 | 17.0 | 20.2 | 3621 | -0.5

Record cards, from the list above. Order of screens: Sa ugtP lethal	PrP UTR inh	BJeLR viability	Mtb hypoxia rep	Mtb hypoxia rep growth	Bead autofluor	RN4220 kill
`CCCC(=O)NC(c1ccc2c(c1)OCO2)c1cc(Cl)c2cccnc2c1O` (centres undefined) in the list: -6.4	19.2	14.6	/	/	2262	40.7
`Cn1nnnc1SCc1ccc(CSc2nnnn2C)cc1` in the list: -1.6	-15.8	-13.9	-8.7	-0.8	2538	8.0
`COC(=O)C1C[C@@]2(O)C(O)C(O)C(O)CC2N1Cc1ccc(C)s1` (some centres undefined) in the list: 1.1&-5.8	/	/	0.8&10.0	6.7&7.2	/	8.0&4.6
`Cc1ccc2nc(-c3ccc(NC(=O)CSc4nc(N)cc(=O)[nH]4)cc3)sc2c1` in the list: 2.3	-82.3	7.1	11.3	-1.2	3947	3.4
`CN1CCN(C(=O)N2CCNC2=O)CC1` in the list: 4.0	-9.5	-2.4	6.0	6.4	3711	6.1

Assay outcomes as filed in PubChem BioAssay.
